Compound activity from PubChem BioAssay.
BJeLR viability: kills HRASV12-expressing BJeLR cells; inhibition, % (concentration not given with the values); BJeLR (HRASV12) viability, CellTiter-Glo ATP luminescence, 48 h; reference of the scale not given here; AID 1554; 300,000 compounds, 0.17% hits;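 active = replicate mean above 50%; inconclusive = above 50% but judged a plate artefact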;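 note: 50 nL library stock added to about 25 µL; numbers are from one replicate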
RN4220 kill: S. aureus RN4220 growth inhibition; inhibition, % (no concentration beside the values); OD600, 16 h; 330,000 compounds, 0.33% hits; AID 1259311;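 active = z-score of -3 or lower and OD600 up to 0.18 on both plates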;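 note: plate controls were untreated cells for no effect and reference antibiotic for full effect; stock transfer was 100 nL into about 80 µL; one replicate is shown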
PrP 5UTR inh: suppresses PrP 5' UTR mRNA reporter expression | cell-based PrP 5' UTR mRNA reporter, plate reader | inhibition, % (concentration not given with the values) | 340,000 compounds, 0.35% hits | AID 488862;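 active = every replicate at 50% or more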;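 note: 0 = median of the neutral control wells; tested in H4 reporter cells; numbers are from one replicate; inactives centre near -14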
Sa ugtP lethal: growth inhibition of S. aureus ugtP deletion strain | 330,000 compounds, 0.54% hits | AID 1259309 | S. aureus RN4220 ugtP deletion, OD600 growth, 16 h; some inactives read as strong as hits | growth inhibition, % (no concentration beside the values);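 active = z-score under -3 and OD600 up to 0.15 on both plates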;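 note: plate controls were untreated wells for no effect and antibiotic for full effect; wells of about 80 µL received 100 nL stock; the first replicate is given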
Mtb hypoxia rep: inhibitors of hypoxia-regulated fluorescent reporter in Mycobacterium tuberculosis. M. tuberculosis hypoxia-regulated fluorescent reporter, fluorescence. fluorescence inhibition, % (test concentration not listed). 300,000 compounds, 0.1% hits. AID 1159583;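 active = 35 to 45% if threefold the growth effect, above 45% if 1.5-fold the growth effect; inactive = the rest, general growth blockers included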;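 note: wells of about 50 µL received 100 nL stock; 0% = vehicle wells and 100% = reference inhibitor wells; whole bacteria with a GFP reporter of the hypoxia response; strong numbers were not always called active; many hits fall short of the cut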
Autofluor counter: flagged as autofluorescent in microsphere protease counterscreen; compound autofluorescence counterscreen, microsphere flow cytometry; active compounds read high; fluorescence intensity (test concentration not listed); 360,000 compounds, 3.1% hits; AID 624483;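 active = at least 3 SD above the mean of all compounds, about 16000 in these data; inconclusive = too few beads counted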;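 note: 100 nL of 1 mM stock went into each well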
Mtb hypoxia rep growth: recorded beside Mtb hypoxia rep, whose call it bears; growth inhibition, %; measured here: M. tuberculosis growth (absorbance);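 0% = vehicle and 100% = reference antibiotic; read after six days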
* = called active by the depositor; ? = inconclusive; · = no result given.

structure,Sa ugtP lethal,PrP 5UTR inh,RN4220 kill,Mtb hypoxia rep growth,Autofluor counter,Mtb hypoxia rep,BJeLR viability
O=C(c1coc(=O)c(Br)c1)N1CCOCC1,2,-3,-12,0,3223,7,4
COCCn1c(SCC(=O)N2CCOCC2)nnc1-c1ccco1,15,-11,-1.9,5,5365,8,-6
COc1ccccc1-c1c(C)nn2c(N3CCN(c4ccccc4OC)CC3)cc(C)nc12,12,-22,-1.6,3,5045,0,-5
CC(=O)N/C(=C\c1ccccc1)C(=O)OCCCOC(=O)/C(=C/c1ccccc1)NC(C)=O,1,-5,-0.8,-17,6063,6,-5
Nc1nc(CN2CCCCCC2)nc(Nc2ccc(F)cc2)n1,1,4,2.5,·,2831,·,11
CC1CCN(Cc2nc(-c3ccc(Cl)cc3)no2)CC1,15,-36,2.7,·,6268,·,11
COc1ccc(S(=O)(=O)n2nc(OC(C)=O)cc2N)cc1,-3,-5,4.8,6,3693,6,-7
CCCCN1C=C(C(=O)OC)C(c2ccccc2C(F)(F)F)C(C(=O)OC)=C1,7,-11,1.6,·,4386,·,3
Cc1ccc(CN(C)C(=O)c2ccccc2Sc2ccccc2C#N)cc1,8,-19,3.0,3,5752,9,8
CC1(C)Cc2cccc(OCC(=O)N3CCN(c4cccc(C(F)(F)F)c4)CC3)c2O1,-2,-20,2.3,-4,?,4,3
COc1ccc(S(=O)(=O)N2CCCCC2)cc1NS(=O)(=O)c1cc(Cl)ccc1Cl,6,-25,23,5,2139,11,-13
CC(=O)C1=C(C)N(Cc2ccccc2)C(=O)NC1c1cccs1 (configuration not stated),-11,·,3.3,7,·,11,·
COc1ccc(N2C(=O)c3ccccc3NC2c2ccc(NC(C)=O)cc2)c(OC)c1 (configuration not stated),7,-30,-2.4,2,2862,3,-1
CC(C)S(=O)(=O)c1cnc(-c2cccnc2)nc1N,9,-7,3.5,13,4774,18,-11
Cc1cc(C)n2nc(C(=O)NC(C)(C)C)nc2n1,3,-73,6.0,7,3076,18,4
CC1CCN(C(=O)COC(=O)c2cn(C)c3ccccc23)CC1,1,-33,1.7,7,3006,17,·
O=C(Cn1cc2c(n1)CCCCC2)NCCN1CCOCC1,4,-23,0.9,·,5740,·,6
Cc1onc(-c2ccccc2)c1C(=O)OCC(=O)Nc1ccc(OC(F)(F)F)cc1,-18,-1,-10,6,7702,8,·
COC(=O)CN1C(=O)CN=C(c2ccccc2Cl)c2cc(Br)ccc21,9,·,6.1,12,5997,6,8
C[C@H](CO)N1C[C@H](C)[C@@H](CN(C)S(=O)(=O)c2cn(C)cn2)Oc2ccc(NC(=O)C3CCCCC3)cc2C1=O,14,-14,3.1,2,2793,2,·

Further results follow.
structure,Sa ugtP lethal,PrP 5UTR inh,RN4220 kill,Mtb hypoxia rep growth,Autofluor counter,Mtb hypoxia rep,BJeLR viability
CCOC(=O)C1=C(CC)Nc2ccccc2N=C1NC(=O)c1cc(S(=O)(=O)N2CCOCC2)ccc1C,1,-4,1.6,3,·,6,·
O=C1C=CC(O)(c2cc(=O)c3c(O)cc(O)cc3o2)C=C1,·,-65,·,·,2807,·,-31
CCOc1ccc2c(C)c(C)c(=O)oc2c1OCC,5,-8,8.6,-2,23673*,13,4
O=C1c2ccccc2-c2nc3ncnn3c(-c3ccccc3Cl)c21,-9,-65,1.2,·,5710,·,-10
CC(C)N(Cc1cc2ccccc2[nH]c1=O)C(=O)C1CCCCC1,12,1,17,3,2257,2,3
CCCn1c(=O)[nH]c(=O)c2c1nc(-c1ccccc1OC(F)F)n2CCOC,4,-15,4.6,5,14503,7,1
O=C(O)CC1SC(=Nc2cccc(O)c2)NC1=O (configuration not stated),-3,-28,-3.6,-1,9858,-5,1
COc1ccccc1COC(=O)N/C=C/c1ccco1,-3,-45,0.7,5,3976,10,-5
COc1ccccc1CN1C(CC(=O)O)c2cc(F)ccc2S1(=O)=O (configuration not stated),-3,·,1.3,7,·,2,·
CCC(C)(C(=O)NC1CCCCC1)N(Cc1cccs1)C(=O)c1ccccn1 (configuration not stated),7,-14,3.2,-2,3999,-6,1
CCOc1ccc(Nc2nc(N3CCOCC3)nc(N3CCOCC3)n2)cc1,1,-6,0.6,0,·,8,17
CC(C)C[C@H](NC(=O)Nc1cccc(Cl)c1)C(=O)O,·,-23,·,·,2357,·,3
COc1ccc(Oc2ccc(NC(=O)c3ccccc3C)cc2)cc1,18,0,2.2,10,2150,7,12
O=C1CN(C(=O)COc2cccc(F)c2)c2ccccc2N1,-7,·,0.4,-2,·,3,3
CCCc1cnc(N2CCN(C(=O)c3ccc(OC)cc3)CC2)nc1,10,-15,2.7,8,3683,11,-3
CCOC(=O)COc1cc2c(C(=O)OCC)c(C)oc2cc1Br,8,-30,6.6,6,9556,3,-14
COc1ccc(-c2cc(C(=O)OCC(=O)N(C)C)c3ccccc3n2)cc1,3,-18,3.1,·,2282,·,-5
N#Cc1nc(-c2ccc(OCc3ccccc3)cc2)oc1N1CCOCC1,-6,-15,2.6,8,10267,7,2
Cc1nn(C)c(Cl)c1/C=N/OC(=O)c1ccc(F)cc1,·,-13,·,·,4326,·,-1
CCn1c(O)c(C=NCc2cccs2)c(=O)[nH]c1=O,5,-19,4.8,1,3844,7,0

Continued:
structure,Sa ugtP lethal,PrP 5UTR inh,RN4220 kill,Mtb hypoxia rep growth,Autofluor counter,Mtb hypoxia rep,BJeLR viability
Cc1ccc(C)c(N(CC(=O)NCc2ccco2)C(=O)CCC(=O)Nc2nccs2)c1,6,1,-1.9,7,3465,14,4
CN(C)S(=O)(=O)c1ccc(Cl)c(NC(=O)CSc2nc3c(cc2C#N)C(=O)CCC3)c1,1,-19,7.9,-6,10887,-4,-28
CCOc1ccc(N(Cc2cc3ccc(C)cc3[nH]c2=O)S(=O)(=O)c2ccccc2)cc1,-1,1,2.8,-7,4345,-7,-6
COc1cc(C2C(C#N)=C(N)Oc3n[nH]c(-c4ccncc4)c32)cc(OC)c1OC (configuration not stated),0,-1,2.1,·,4586,·,6
Cc1ccccc1-n1nnnc1SCC(=O)N(C)C1CCS(=O)(=O)C1 (configuration not stated),3,-24,1.4,9,4408,-10,-7
Cc1cc2ncn(CC(O)COc3cccc(C(=O)O)c3)c2cc1C (configuration not stated),3,-10,4.7,0,15666,0,-2
Cc1ccc(C)c(NC(=O)c2ccccn2)c1,3,-41,-0.6,-4,20724*,-3,10
CC(C)CNS(=O)(=O)c1cc(C(=O)OCC(=O)N(C)C2CCS(=O)(=O)C2)c(Cl)cc1Cl (configuration not stated),4,-15,0.8,11,4615,15,-2
O=c1c2ccccc2nnn1CSc1nnc2ccccn12,0,-70,1.3,6,8834,7,3
CCOC(=O)C1=C(C)NC(C)=C(C(=O)OC)C1c1ccco1 (configuration not stated),3,-19,0.2,1,6678,11,1
COC(=O)c1cccc(S(=O)(=O)N2CCOCC2)c1,-2,-19,-2.1,2,3864,3,-11
COc1cccc(C(=O)NC2CCCC2)c1,-2,-21,-4.1,0,2195,-8,·
C/C(CC(=O)NCCCN1CCOCC1)=N\NC(=O)COc1ccc(C)cc1,·,-22,·,·,2305,·,-8
Cc1ccc(O)c(CN2CCN(c3ccccc3)CC2)c1,-12,-30,-3.1,14,3556,13,-15
Oc1cc(NCc2cccnc2)ccc1-c1nc2ccccc2o1,11,-105,-8.1,12,6415,0,-2
COc1ccc(C(=O)NCCNc2nc3ccc(C)cc3cc2C#N)cc1,-2,-16,4.6,4,4060,-5,-1
CC(=O)Nc1ccc(C2CC(c3ccc(Cl)cc3)=NN2c2ccccc2)cc1 (configuration not stated),4,-26,-20,8,4081,4,-11
Cc1csc(Cn2c(CN(C)C)nc3ccccc3c2=O)n1,4,-16,0.8,·,4675,·,-10
CC(=O)Oc1ccc(C(=O)[C@H]2[C@H]3C(=O)N(c4ccc(C)cc4C)C(=O)[C@H]3[C@@H]3C=CC=NN32)cc1,0,-56,5.9,-2,3885,2,-8
CCCN1CCN(C(=O)CS(=O)(=O)Cc2nc(-c3cccc(OC)c3)oc2C)CC1,-5,-5,-4.4,4,5407,-5,10

Other records:
structure,Sa ugtP lethal,PrP 5UTR inh,RN4220 kill,Mtb hypoxia rep growth,Autofluor counter,Mtb hypoxia rep,BJeLR viability
COc1cccc(/C(C#N)=C/c2c(-c3ccc(Cl)cc3)nc3c(C)cccn23)c1,-10,2,-4.4,·,2678,·,1
O=C(CCCCCNC(=O)N1CCn2c1nc1ccccc12)NCc1ccccc1,5,-5,-4.8,-5,4414,5,-3
Cc1ccc(N/C=C/c2onc(C)c2[N+](=O)[O-])cc1,4,-46,5.6,-2,4639,8,-3
CC(=O)Nc1ccc(S(=O)(=O)N2CCN=C2SCc2ccccc2C)cc1,5,-2,6.4,-3,4552,6,-2
CC(C)C[C@H](NC(=O)OC(C)(C)C)C(=O)N[C@@H](CO)[C@H](O)[C@@H]1C[C@@H]1C(=O)N(C)C,8,-14,0.0,-7,3775,-2,-3
COc1cc(/C=N/NC(=O)Cn2cnc3ccccc3c2=O)ccc1O,·,-13,·,·,5378,·,3
CCOc1nc(NCCO)nc(Nc2ccccc2F)n1,·,-41,·,·,4260,·,-6
O=C(CSC1CN(C(c2ccccc2)c2ccccc2)C1)NN=Cc1ccccc1,-23,·,-7.6,7,·,-4,·
Cc1cc(C)c2sc(NC(=O)C3=COCCO3)nc2c1,9,-100,-2.6,4,5847,7,2
COCCCNc1nc(N)c([N+](=O)[O-])c(N2CCCCCC2)n1,74,-6,75,-2,3875,0,5
COCCN(C(=O)c1ccccc1)c1nnc(-c2cccnc2)s1,3,-19,0.7,-1,4193,11,7
C=CCc1cccc(/C=N/NC(=O)CNc2ccccc2)c1O,·,-22,·,·,2816,·,6
CNC(=O)COc1coc(CN2CCN(Cc3ccccc3)CC2)cc1=O,1,-8,2.1,-3,5790,9,2
CS(=O)(=O)N(CC(=O)N1CCCCC1)c1sc2c(c1C#N)CCCC2,6,-10,4.0,5,4780,4,5
COc1cc(/C=C/C(=O)NCCc2ccc(S(N)(=O)=O)cc2)ccc1OCC#N,0,-15,2.0,17,4080,-2,-2
O=C(Nc1ccc2c(c1)OCCO2)C1CC(c2ccc(F)cc2)=NO1 (configuration not stated),9,-16,2.9,2,3762,-1,-3
O=C(Nc1ccccc1Cl)c1ccc(-n2cccn2)c([N+](=O)[O-])c1,0,2,4.5,1,2369,6,2
COc1ccc(/C=N/Nc2ccc([N+](=O)[O-])cc2)cc1O,·,-70,·,·,3723,·,-23
CC(C)NCCOCCSc1ccc(Cl)cc1,10,-8,3.3,·,4626,·,-1
CCCN1C[C@H](CSC)C[C@@H]2c3cccc4[nH]cc(c34)C[C@H]21,·,-1,·,·,4413,·,-6

Entries of single compounds from above. Order of screens: Sa ugtP lethal, PrP 5UTR inh, RN4220 kill, Mtb hypoxia rep growth, Autofluor counter, Mtb hypoxia rep, BJeLR viability
`O=C(CSC1CN(C(c2ccccc2)c2ccccc2)C1)NN=Cc1ccccc1` across the screens: -23, ·, -7.6, 7, ·, -4, ·
`COc1ccc(/C=N/Nc2ccc([N+](=O)[O-])cc2)cc1O` across the screens: ·, -70, ·, ·, 3723, ·, -23

(list continues)
structure,Sa ugtP lethal,PrP 5UTR inh,RN4220 kill,Mtb hypoxia rep growth,Autofluor counter,Mtb hypoxia rep,BJeLR viability
Cc1cccc(NC(=S)N(CCCN2CCOCC2)C(C)c2cc3ccccc3o2)c1C (configuration not stated),-1,·,0.7,8,?,6,16
CCOc1ccc(C2(C#N)CC[N+](C)(C)CC2)cc1,-2,-14,3.5,6,3220,8,4
CN(c1cccc(NC(=O)c2ccccc2N(C)S(=O)(=O)c2ccccc2)c1)S(C)(=O)=O,3,-5,4.6,3,2112,11,-4
O=c1c(=Cc2cccc3ccccc23)sc2ncnn12,3,·,1.0,-2,·,8,·
COc1ccc(CN2CCNC(=O)C2CC(=O)N(C)CCc2cnn(C)c2)c(F)c1 (configuration not stated),3,7,-2.8,-10,5369,-2,8
CCCCNC(=O)[C@@H]1CSC2c3ccccc3C(=O)N21 (some centres not stated),17,8,-0.1,2,3458,0,3
COc1ccc(OC)c(NC(=O)CSC2=NCCS2)c1,-3,-15,2.1,·,2001,·,-3
CCCCOc1cccc(C2C(C(=O)c3cccs3)=C(O)C(=O)N2Cc2cccnc2)c1 (configuration not stated),-2,-15,3.0,12,2391,-1,-18
